gsp ag: agonists of gsp mutant (McCune-Albright syndrome) | gsp mutant cells, cAMP HTRF, 30 min; control for the full effect not named in the record | Potency, µM (doses to about 76.9 µM), inactives show top-dose activation (cAMP increase), usual class: activators | 0.13% of 340,000 active | AID 624287; active = well fitted activation curve with a large enough effect; inconclusive = small, poorly fitted or top-dose-only effect, or another doubt; inactive = no such curve, though single readings can be large or run the other way; cell line not stated here;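 note: phosphodiesterase inhibitor Ro 20-1724 added with compounds to block cAMP breakdown; potency is the fitted concentration of half-maximal effect; nearly all actives have a fitted effect of over 60% in size; about a fifth of the inactives were tested at one dose only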
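Cells stably selected in G418 were plated at 2000/well, grown 16-24 hr, then given compounds in DMSO with the PDE inhibitor […] (300 uM solution added) for 30 min at 37C; cAMP was read by HTRF.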
D2 PAM: positive allosteric modulators of human D2 dopamine receptor. AID 624464. DiscoveRx D2 beta-arrestin cells, luminescence, 90 min; 100% = 57 uM dopamine signal. potentiation, % (concentration not given with the values). 0.23% of 360,000 active; active = potentiation of 50% or more; inconclusive = 30% to 50%; inactive = 30% or less;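 note: compound concentration not given in the record; tested on top of an EC20 dose of dopamine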
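PathHunter D2 cells, attached overnight at 37 deg C, received compound in DMSO plus dopamine at EC20 (50 nM final) for 90 min at 37 deg C. Beta-arrestin recruitment was read as luminescence after 1 h with detection reagent at ambient temperature.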
ClpP mod: qHTS Assay for Activators of ClpP; Potency, µM (highest dose often 57.5 µM), inactives show at the highest dose activity change, negative = active; 1.9% of 340,000 active; AID 651965, 2013; purified B. subtilis ClpP, FRET peptide cleavage, 20 min; active = well fitted falling curve with a large enough effect; inconclusive = small, poorly fitted or top-dose-only effect; inactive = no such curve, though single readings can be large or run the other way; note: potency is the fitted concentration of half-maximal effect; the source files actives as falling curves though it sought activators and does not explain the sign; nearly all actives have a fitted effect of over 65% in size; many hits overshoot -100%
Target sequence (P80244 whole entry, looked up): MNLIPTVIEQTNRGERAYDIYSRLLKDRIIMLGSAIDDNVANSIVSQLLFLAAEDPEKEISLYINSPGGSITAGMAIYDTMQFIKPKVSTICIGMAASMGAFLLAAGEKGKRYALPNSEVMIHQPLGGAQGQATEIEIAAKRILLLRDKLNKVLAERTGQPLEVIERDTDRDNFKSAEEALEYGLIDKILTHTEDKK
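Purified B. subtilis ClpP, 10 microg/mL final in Tris/HCl pH8 with KCl, BSA, glycerol and Tween-20, cleaved an Abz/nitrotyrosine-quenched decapeptide. Fluorescence (ex 320, em 430) was read at 0 and 20 min at room temperature. Delta was normalized to 5.8 microM ADEP and DMSO/no-enzyme controls.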
Menin-MLL FL inh: menin-MLL binding inhibition, fluorescein peptide; Fluorescence polarization, fluorescein-MLL peptide displacement from menin; FP activity change, % at 61.4 µM; 290,000 tested, under 10 active; AID 1766; inconclusive = falling polarisation curve, or a change in total fluorescence; inactive = total fluorescence flat and polarisation flat or rising; no compound was filed as active; the % refers to the polarisation; negative = inhibition;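 note: % of control where 0% means no effect; inhibitors lower the polarisation; unlabelled MLL peptide was the positive control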
gsp antag: antagonists of gsp mutant (McCune-Albright syndrome). gsp-mutant cells, cAMP HTRF, 30 min; control for the full effect not named in the record. Potency, µM (top dose mostly 76.9 µM), for inactives: top-dose activity change, negative = inhibition, most hits filed as inhibitors. 0.4% of 340,000 active. AID 624288; active = falling curve of any shape with a large fitted effect; inconclusive = falling curve, mostly with a smaller effect; inactive = flat or rising curve; cell line not stated here;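 note: intracellular cAMP measured with PDE inhibitor Ro 20-1724 present during compound exposure; potency is the fitted concentration of half-maximal effect; % is set by controls: 0 for no effect and ±100 for the full control effect; nearly all actives have a fitted effect of over 65% in size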
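Cells in G418 medium, seeded 16-24 h, 37C; buffer exchange to DPBS + 1 mM CaCl2, 0.5 mM MgCl2, 0.05% BSA; cpds in DMSO + […] (300 uM stock), 30 min 37C; HTRF cAMP detection.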
Sfp inh: inhibitors of Bacillus subtilis Sfp phosphopantetheinyl transferase; Q9F4F7; Biochemical Sfp PPTase activity, qHTS; Potency, µM, without a hit: max response, negative = inhibition, actives largely listed as inhibitors; 3.5% of 310,000 active; AID 1490; active = well fitted inhibition curve with a large enough effect; inconclusive = small, poorly fitted or top-dose-only effect, or another doubt; inactive = no such curve, though single readings can be large or run the other way;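 note: the enzyme is Sfp with the accession as filed and its product quenches rhodamine fluorescence; potency is the fitted concentration of half-maximal effect; 0% = enzyme reaction without inhibitor and -100% = no enzyme wells; top concentration of the series not given in the record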
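Reaction rates are the 30-min fluorescence difference (ex 525, em 598 nm) in wells containing 15 nM Sfp, 5 uM rhodamine-CoA and 12.5 uM BHQ-2-YbbR at pH 7.6 with 10 mM MgCl2.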
TRPV1 PAM: potentiators of human vanilloid receptor 1 (TRPV1) | Q8NER1 | TRPV1-expressing cells, Fluo-8 calcium influx, capsaicin EC20 potentiation; host cell line not named in the record; control for the full effect not named in the record | potentiation, % at 8.33 µM | 0.02% of 320,000 active | AID 540277; active means potentiation above 80%; inconclusive means 30% to 80%; inactive means below 30%; note: 0% is about no effect
Target sequence (Q8NER1 whole entry, looked up): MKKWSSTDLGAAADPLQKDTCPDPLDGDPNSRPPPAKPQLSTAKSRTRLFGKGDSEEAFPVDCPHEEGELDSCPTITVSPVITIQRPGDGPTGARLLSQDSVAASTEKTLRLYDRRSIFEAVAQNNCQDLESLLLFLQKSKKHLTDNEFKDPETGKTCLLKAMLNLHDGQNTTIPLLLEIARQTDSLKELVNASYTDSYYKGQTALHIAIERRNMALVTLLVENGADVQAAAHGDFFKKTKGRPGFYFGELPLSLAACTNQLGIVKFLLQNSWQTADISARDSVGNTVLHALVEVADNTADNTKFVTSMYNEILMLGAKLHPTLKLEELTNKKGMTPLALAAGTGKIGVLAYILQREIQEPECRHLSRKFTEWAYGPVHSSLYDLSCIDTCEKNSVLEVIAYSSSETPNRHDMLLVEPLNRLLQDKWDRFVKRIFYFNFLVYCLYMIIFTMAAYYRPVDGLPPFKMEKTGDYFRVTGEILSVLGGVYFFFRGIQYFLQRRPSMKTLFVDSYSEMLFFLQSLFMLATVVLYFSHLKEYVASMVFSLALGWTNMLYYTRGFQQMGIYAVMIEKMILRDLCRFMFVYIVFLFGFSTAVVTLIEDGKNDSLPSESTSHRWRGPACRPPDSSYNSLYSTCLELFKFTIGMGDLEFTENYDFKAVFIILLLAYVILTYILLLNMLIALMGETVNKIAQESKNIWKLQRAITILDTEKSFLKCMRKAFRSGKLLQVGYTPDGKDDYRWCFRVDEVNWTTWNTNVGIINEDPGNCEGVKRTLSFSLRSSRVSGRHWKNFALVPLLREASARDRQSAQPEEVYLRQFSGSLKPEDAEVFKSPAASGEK
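Cells expressing TRPV1 were dye-loaded with Fluo-8 and read kinetically: 10 s baseline, 3 min after compound (agonist portion), then 2 min after EC20 capsaicin (allosteric enhancer portion). Calcium-bound dye fluorescence at 480/520 nm.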
* marks the source's active call; other numbers are inactive results; i = inactive; ? = inconclusive; / = not tested or not shown; & = joins results of further samples; [ ] = dose if it differs, or a comment. Compounds as they come; overall some 5.1% were active at least once.

SMILES	gsp ag	D2 PAM	ClpP mod	Menin-MLL FL inh	gsp antag	Sfp inh	TRPV1 PAM
C=CCc1ccccc1OCC(O)CNC1CCCC1 (stereo unspecified)	14%	-19	0.9%	/	-4%	23%	?
O=C(CN1C(=O)C2C3c4ccccc4C(c4ccccc43)C2C1=O)Nc1cccc(C(=O)O)c1 (stereo unspecified)	32%	-7	-2.6%	3.9	8%	12%	-2
Nc1ccc(SC(F)(F)F)cc1	33%	-8	/	1.7	9%	-4%	?
Cc1ccc(C(=O)N/N=C/c2ccc([N+](=O)[O-])s2)cc1	-25%	-31	-0.8%	1.7	6%	-2%	-18
Nc1nc(OCc2ccccc2)c2[nH]cnc2n1	/	-21	-2.3%	-0.2	-3%	/	/
Cc1ccc(C(NC(=O)N2CCOCC2)=C(Cl)Cl)cc1F	6%	-25	0.5%	-1.4	-1%	4%	-3
CCN(C(=O)c1cc2cc(OC)ccc2oc1=O)c1cccc(C)c1	6%	2	-7.0%	-1.7	-18%	20%	4
CCOC(=O)c1c(-c2ccccc2)oc2ccc(OCC(=O)NNC(=O)CCCC(=O)O)cc12	15%	-3	3.9%	?	5%	9%	2
O=C1C2C3C=CC(c4ccccc4)(C2C(=O)N1c1cccc(Cl)c1)C1C(=O)N(c2cccc(Cl)c2)C(=O)C31 (stereo unspecified)	0%	2	-1.6%	5.6	16%	12%	-10
CCc1nc2ccc(C)cc2c(C(=O)Oc2cccc3cccnc23)c1C	4%	-8	-5.2%	-0.1	-13%	-2%	-10

Some entries already given with just gsp ag, D2 PAM and Menin-MLL FL inh:
structure,gsp ag,D2 PAM,Menin-MLL FL inh
Cc1ccc(C(=O)N/N=C/c2ccc([N+](=O)[O-])s2)cc1,-25%,-31,1.7
Nc1nc(OCc2ccccc2)c2[nH]cnc2n1,/,-21,-0.2
Cc1ccc(C(NC(=O)N2CCOCC2)=C(Cl)Cl)cc1F,6%,-25,-1.4

Remaining list, next part
SMILES	gsp ag	D2 PAM	ClpP mod	Menin-MLL FL inh	gsp antag	Sfp inh	TRPV1 PAM
Cc1ccc(S(=O)(=O)/N=C(\CN2CCOCC2)N2CCCC2)cc1	0%	1	1.3%	1.3	3%	21%	-1
CN(CC(=O)Nc1cccc(F)c1)C(=O)c1cccnc1Sc1ccccc1Cl	15%	-26	2.3%	/	-13%	/	-15
CCn1ncc(C2=NOC(C(=O)Nc3cccc(C(C)=O)c3)C2)c1C (stereo unspecified)	5%	-13	-2.9%	-9.4	?	4%	0
CC1(C)CC(=O)c2c(O)cc(OCc3ccc(Br)cc3)cc2O1	?	-6	0.4%	1.4	-9%	-16%	-7
CN(CCOc1ccc(-c2ccn(S(=O)(=O)c3ccc(Cl)cc3)n2)cc1)c1ccccn1	22%	-1	3.5%	4.8	-9%	-4%	25
CN1C(=O)CC(N2CCN(c3ccccc3)CC2)C1=O (stereo unspecified)	-15%	-1	-0.6%	/	2%	/	/
Cc1ccc(S(=O)(=O)NC(C)C(=O)Nc2cccc([N+](=O)[O-])c2)cc1 (stereo unspecified)	10%[15.4 µM]	-12	-1.2%	-0.6	7%	18%	-9
CCc1nn(CC(=O)NCCCN(C)Cc2ccccc2)c(=O)c2cc3sc(C)cc3n12	?	-34	-3.9%	/	11%	-12%	2
O=C(Nc1ccncc1)c1ccccc1[N+](=O)[O-]	-3%	-3	/	4.1	8%	5%	-6
O=C(CSc1nc(C2CC2)nc2ccccc12)Nc1cccc(O)c1	?	0	/	2.7	4%	-3%	9
N#Cc1ccccc1Sc1ccccc1C(=O)OCC(=O)NC1CCS(=O)(=O)C1 (stereo unspecified)	-21%	-9	1.1%	1.4	-16%	-3%	9
CN1C[C@H]2CON(C)[C@H]2C[C@H]1c1cccc(-c2ccccc2)c1	/	-15	1.6%	/	8%	/	/
CN1CCN(C(=S)Nc2ccc(S(N)(=O)=O)cc2)CC1	-1%	-1	1.7%	-3.3	7%	22µM*	-6
CC(C)CN1C(=S)SC(C)(C)C1n1oc(=O)n(-c2ccc(Cl)cc2)c1=O (stereo unspecified)	0%	-6	-3.0%	-4.2	?	20%	7
O=C(NC(=S)Nc1cccc([N+](=O)[O-])c1)c1ccco1	-6%[15.4 µM]	-5	4.7%	3.8	19%	?	1
Cc1ccc(NC(=O)CN(C)S(=O)(=O)c2cccs2)c(Br)c1	-17%[15.4 µM]	4	/	3.8	-17%	20%	11
CCN(CC(=O)Nc1sc2c(c1C#N)CCCC2)Cc1nc2ccccc2c(=O)[nH]1	7%[15.4 µM]	5	/	14	-42%	-12%	-5
Cc1ccc(S(=O)(=O)c2c[nH]c3ccc(C)cc3c2=O)cc1	49%	-5	-21%	6.5	-12%	18%	7
COc1ccc(CC(=O)NCc2nnc(SCC(=O)Nc3nccs3)n2C)cc1	6%	-6	0.4%	2.7	13%	2%	1
O=C(CCCCn1c(=O)c2ccccc2n(CC(=O)NC2CCCC2)c1=O)NC1CCCC1	-2%	7	-18%	3.3	4%	-1%	-1
Cc1ccc2c(c1)sc1nc(=O)n(-c3ccccc3)c(=O)n12	18%	0	/	0.2	5%	-15%	-9
Cc1ccc(-c2csc(NC(=O)COC(=O)c3cccc(S(=O)(=O)N4CCOCC4)c3)n2)cc1	15%	-10	-4.0%	0.0	-3%	22%	8
CCC1Oc2ccc(C)cc2N(CC(=O)N(Cc2ccc(C)o2)C2CCCC2)C1=O (stereo unspecified)	-4%[15.4 µM]	-22	2.7%	-0.8	-3%	18µM*	-22
Cc1cccc2c(C(=O)N3CCN(C(=O)c4ccco4)CC3)cc(-c3cccc(Br)c3)nc12	8%[15.4 µM]	1	/	-1.2	2%	?	-35
O=[N+]([O-])c1cc(C(F)(F)F)ccc1-n1nnc2ccccc21	-7%	?	?	2.5	-4%	5%	-3
COc1ccc(CN(Cc2ccc(OC)cc2)S(=O)(=O)c2ccc(-n3cnnn3)c(C)c2)cc1	3%	-7	2.2%	1.8	-1%	8%	?
Nc1c(N(CCC2=CCCCC2)C(=O)COc2ccc(F)cc2)c(=O)[nH]c(=O)n1Cc1ccccc1	-15%	-3	-0.4%	/	9%	/	18
CCS(=O)(=O)NCCc1csc(-c2ccccc2)n1	0%	3	-2.3%	-0.6	0%	-4%	-15
Cc1ccc2c(c1)Cc1nc3ccccc3nc1-2	13%	-14	/	0.2	1%	3%	-29
COc1ccccc1C(=O)C1CCCN(C(=O)c2ccccn2)C1 (stereo unspecified)	2%[15.4 µM]	-1	/	0.2	9%	10%	0

Grouped by structure, the compounds so far with bromine
SMILES	gsp ag	D2 PAM	ClpP mod	Menin-MLL FL inh	gsp antag	Sfp inh	TRPV1 PAM
CC1(C)CC(=O)c2c(O)cc(OCc3ccc(Br)cc3)cc2O1	?	-6	0.4%	1.4	-9%	-16%	-7
Cc1ccc(NC(=O)CN(C)S(=O)(=O)c2cccs2)c(Br)c1	-17%[15.4 µM]	4	/	3.8	-17%	20%	11
Cc1cccc2c(C(=O)N3CCN(C(=O)c4ccco4)CC3)cc(-c3cccc(Br)c3)nc12	8%[15.4 µM]	1	/	-1.2	2%	?	-35

Continuation:
SMILES	gsp ag	D2 PAM	ClpP mod	Menin-MLL FL inh	gsp antag	Sfp inh	TRPV1 PAM
CC(CN1CCOCC1)OC(=O)c1ccc(Br)cc1 (stereo unspecified)	4%	14	-2.1%	-1.5	1%	11%	-4
O=C(OCCN1CCN(C2=NS(=O)(=O)c3ccccc32)CC1)c1cccc(Br)c1	3%[15.4 µM]	-28	1.2%	/	-6%	19%	25
CCC1=C2CC[C@H]3C(=O)N(C)C(=O)[C@H]3[C@H]2[C@@]2(Cc3ccccc3)C(=NCCOC)OC(=O)N2C1=O	3%	-7	-1.8%	-10&1.3	7%	22%&8%	?
CNC(=S)N1CCN(C(=O)C2CCCO2)CC1 (stereo unspecified)	-53%[inhibitor]	24	-0.7%	4.2	7%	27%	0
N#Cc1nc(N)nc(N(c2ccccc2)c2ccccc2)n1	17%	-7	-0.6%&0.4%	-1.4	-34%	28%	0
Cc1cccc(NC(=O)C2C(c3ccccc3)C2(Cl)Cl)c1C (stereo unspecified)	-21%	-8	-22%	0.6	3%	4%	3
Cc1cccc(C(=O)NNC(=O)c2ccco2)c1O	4%	-11	-1.0%	/	5%	/	/
O=C1c2ccccc2-c2c1cccc2C(=O)N(CCO)CCO	-3%	-5	-1.5%	3.7	10%	8%	-6
CCCCC[C@]12Cc3cc(OC)c(OC)cc3C(O1)c1c(cc(C)n(-c3ccccc3)c1=O)O2	/	/	/	1.4[11.7 µM]	/	-11%	i
CC(=O)Nc1cccc(NS(=O)(=O)c2cccc3nsnc23)c1	10%	5	-1.8%	-6.8	-6%	11%	-3
CCOc1ccc(C(=O)NCC(=O)OCC(=O)Nc2ccc(C)c(S(=O)(=O)N(C)C)c2)cc1	?	-4	/	2.3	7%	10%	-11
Cc1cc(=O)oc2cc(OC(=O)CCN3C(=O)c4ccccc4C3=O)ccc12	20%	-9	-97%	-6.3	-3%	2%	1
CCn1c(CCC(=O)O)nc2cc(S(=O)(=O)N(C)C)ccc21	-39%[inhibitor]	2	/	1.3	13%	14%	4
CCOC(=O)c1c(-c2ccc(C)cc2)csc1NC(=O)C1CCCO1 (stereo unspecified)	3%	-10	-5.2%	3.8	?	-14%	-1
O=[N+]([O-])c1ccc(/C=N/N2CCCCC2)cc1	4%	-1	2.7%	-1.5	5%	3%	-19
Cc1ccc(OCC(=O)NNC(=O)C2CCN(c3ncnc4sc(C)c(C)c34)CC2)cc1	38%[15.4 µM]	-68	/	/	-25%	/	-1
COCCN(C(=O)COC(=O)c1ccc(C)o1)c1c(N)n(Cc2ccccc2)c(=O)[nH]c1=O	-3%	-19	0.9%	/	6%	/	-17
COc1cc(/C=N/Nc2ccccn2)ccc1O	-25%[15.4 µM]	-7	/	-1.0	-4%	?	-3

2 entries from above, set out differently.
Values run as follows: gsp ag | D2 PAM | ClpP mod | Menin-MLL FL inh | gsp antag | Sfp inh | TRPV1 PAM
- COCCN(C(=O)COC(=O)c1ccc(C)o1)c1c(N)n(Cc2ccccc2)c(=O)[nH]c1=O
 : -3% | -19 | 0.9% | / | 6% | / | -17
- COc1cc(/C=N/Nc2ccccn2)ccc1O
 : -25%[15.4 µM] | -7 | / | -1.0 | -4% | ? | -3
